KCNQ2 block: KCNQ2 potassium channel inhibitors, primary screen, cell-based, CHO-K1, FluxOR thallium flux, B-score (AID 2156). Potassium voltage-gated channel subfamily KQT member 2 (Rattus norvegicus), O88943. 20 min; stronger effect = lower value; only compounds with negative scores are shown here; some inactives read as strong as hits. B-score at 10 µM. actives 1.1% (n = 310,000);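 active means fluorescence ratio B-score at most minus 3 library SDs, with starting brightness B-score within 2 library SDs, cut at about -5.5 in these data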
Target sequence (O88943 whole entry, looked up): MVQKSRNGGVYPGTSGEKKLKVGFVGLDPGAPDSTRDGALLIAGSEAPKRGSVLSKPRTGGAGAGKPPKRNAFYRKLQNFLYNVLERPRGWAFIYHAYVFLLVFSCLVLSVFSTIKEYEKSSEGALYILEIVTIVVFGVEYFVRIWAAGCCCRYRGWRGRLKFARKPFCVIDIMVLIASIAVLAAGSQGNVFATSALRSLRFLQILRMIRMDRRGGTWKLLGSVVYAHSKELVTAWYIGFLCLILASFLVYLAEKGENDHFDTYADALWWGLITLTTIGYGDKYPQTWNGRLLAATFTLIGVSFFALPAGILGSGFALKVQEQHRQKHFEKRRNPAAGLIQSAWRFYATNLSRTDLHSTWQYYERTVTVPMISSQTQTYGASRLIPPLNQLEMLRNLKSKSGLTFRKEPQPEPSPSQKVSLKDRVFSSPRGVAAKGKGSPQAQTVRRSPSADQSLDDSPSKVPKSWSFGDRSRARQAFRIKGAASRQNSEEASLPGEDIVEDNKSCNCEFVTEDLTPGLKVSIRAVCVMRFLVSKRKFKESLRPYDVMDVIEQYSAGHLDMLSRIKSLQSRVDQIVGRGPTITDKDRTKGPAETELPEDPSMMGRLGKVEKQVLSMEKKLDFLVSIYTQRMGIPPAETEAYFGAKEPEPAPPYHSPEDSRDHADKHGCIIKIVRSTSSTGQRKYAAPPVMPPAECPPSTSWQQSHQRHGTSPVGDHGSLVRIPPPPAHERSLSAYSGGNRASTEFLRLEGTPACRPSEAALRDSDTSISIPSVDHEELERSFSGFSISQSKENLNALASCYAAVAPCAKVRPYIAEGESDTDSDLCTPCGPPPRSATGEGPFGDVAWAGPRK
KCNQ2 block baseline: second read-out of KCNQ2 block, no call of its own (marks repeat the call); B-score; measured here: initial fluorescence intensity artifact check;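 brightness before thallium and not channel activity; 0 = typical well and far values either way flag optical interference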
* marks the source's active call; other numbers are inactive results; i = inactive. Only part of the results is shown; count on the stated rates, not on these rows.

Start of the listing, in advance, two compounds:
KCNQ2 block	KCNQ2 block baseline	molecule
i	-3.6	CN(CC(=O)Nc1ccc(F)cc1)c1ccc(S(=O)(=O)N2CCCCC2)cc1[N+](=O)[O-]
i	-1.4	CC(NC(=O)Cc1ccc([N+](=O)[O-])cc1)c1ccc2c(c1)OCO2 (configuration not stated)

All compounds of this part, from the start:
KCNQ2 block	KCNQ2 block baseline	molecule
i	-3.6	CN(CC(=O)Nc1ccc(F)cc1)c1ccc(S(=O)(=O)N2CCCCC2)cc1[N+](=O)[O-]
i	-1.4	CC(NC(=O)Cc1ccc([N+](=O)[O-])cc1)c1ccc2c(c1)OCO2 (configuration not stated)
i	-0.92	CC(C)CN1C2CCCC1CC(NC(=S)NCc1ccco1)C2 (configuration not stated)
i	0.05	CC(C)CCC(CCNCc1ccccn1)c1ccc2c(c1)OCO2 (configuration not stated)
i	0.93	CCCc1nnc(NC(=O)CCC(=O)NCc2ccccc2OC)s1
i	-0.48	Nc1nnnn1CC(=O)OCc1cccc(Br)c1
i	-0.42	Cc1cccc(OCC(=O)N(Cc2cccs2)C2CCS(=O)(=O)C2)c1 (configuration not stated)
i	0.1	Cc1cccc(-c2nc(CS(=O)CC(=O)NCCc3ccccc3)c(C)o2)c1 (configuration not stated)
i	-0.01	CC(C)N=C1SC(CC(=O)Nc2ccccc2)C(=O)N1C(C)C (configuration not stated)
i	-0.21	O=C(CCC1CCCN(C(=O)c2ccc3c(c2)OCO3)C1)NCc1ccc(F)c(F)c1 (configuration not stated)
i	1.2	CC[n+]1c(/C=C/c2ccc(OC(C)=O)c(OC)c2)ccc2ccccc21
i	-1.1	COC(=O)CCc1c(COC(C)=O)[nH]c(C(=O)OCc2ccccc2)c1C
i	-0.95	CCn1c(O)c(N=N)c2ccccc21
i	0.53	CC(=O)Nc1ccc(S(=O)(=O)N(C)CC(=O)OCC(=O)c2cc(C)n(-c3ccc4c(c3)OCO4)c2C)cc1
i	1.4	CCOc1ccc(C(=O)NCCc2cnc[nH]2)cc1OCC
i	-0.57	O=C(Cc1cccs1)N(Cc1cccs1)C1(C(=O)NC2CCCC2)CCCCC1
i	0.85	COCCNC(=O)C(c1ccc(F)cc1)N(Cc1cccs1)C(=O)CCC(=O)Nc1ccccn1 (configuration not stated)
i	1.6	CSc1nc(C)c(CCOCc2ccc(F)cc2)c(=O)[nH]1
i	1.5	COc1ccc(N(C(=O)c2ccc(Cl)cc2)C2=CC3CCC(C2)N3C)cc1 (configuration not stated)
i	0.04	O=C(COc1ccc(Cl)cc1)Nc1ccccc1C(=O)NCc1cccnc1
i	0.08	Oc1ccc(Cl)cc1CNc1ccc(Br)cn1
i	-0.27	Cc1ccc(-c2csc3ncnc(N4CCc5ccccc5C4)c23)cc1
i	-1.2	CC1=C(C(=O)OCC2CCCO2)C(c2cccc(C(F)(F)F)c2)C2=C(CC(c3ccco3)CC2=O)N1 (configuration not stated)
i	-0.2	O=C(CSc1nnc(NC(=O)c2ccco2)s1)NCc1ccc2c(c1)OCO2
i	0.9	O=C(Cn1nnc2ccccc2c1=O)NCC1CCC(C(=O)O)CC1 (configuration not stated)
i	0.28	N#Cc1ccccc1NC(=O)CSc1n[nH]c(-c2ccco2)n1
i	1.2	COC(=O)CCC(=O)NNC(=O)CCCOc1ccc(Cl)cc1Cl
i	1.4	O=C(Nc1cc(C(=O)Nc2ccccc2C(=O)O)cc(C(=O)Nc2ccccc2C(=O)O)c1)c1ccccc1
i	1.2	O=C(CCNc1ccc(F)cc1)c1cc2ccccc2o1
i	0.5	COc1ccc2c(=O)c3c(=O)n(Cc4ccco4)c(-c4cc(OC)c(OC)c(OC)c4)nc3oc2c1
i	-1.1	O=C(O)c1cccc(S(=O)(=O)Nc2ccc3oc(=O)sc3c2)c1
i	0.15	CCOc1ccc(CC(=O)Nc2ccc(S(=O)(=O)N3CCCC3)cc2)cc1
i	0.31	COC(=O)c1ccc(Oc2cc(C)nc(Cl)n2)cc1
i	-0.52	COc1ccc(-c2n[nH]c(=S)n2-c2ccc(C)cc2)cc1OC
i	0.11	COc1cccc(NC(C)=[N+](C)CCNS(=O)(=O)c2ccc(Cl)cc2)c1
i	-0.31	O=C(CCNC(=O)c1ccco1)Nc1ccccc1OC(F)F
i	-1.1	Cc1cccc(NC(=O)CSc2nc3ccccc3nc2N2CCCC2)c1
i	-1.5	CCCn1c(C(O)c2ccc(C)cc2)nc2ccccc21 (configuration not stated)
i	-1.7	Cc1cc(Cl)c2oc(C(=O)N(C)CC3CCOCC3)c(C)c2c1
i	-0.04	COc1ccc(NC(=O)c2ccc(Cl)c(S(=O)(=O)N3CCc4ccccc4C3)c2)cn1
i	1.4	COc1ccc(C(=O)Nc2ccccc2C(=O)NCCCn2ccnc2)cc1
i	-0.53	CS(=O)(=O)N(CC(=O)Nc1ccc(S(=O)(=O)N2CCOCC2)cc1)c1cccc(F)c1
i	1.7	Cc1cccc(N2CCCn3c2nc2c3c(=O)[nH]c(=O)n2C)c1
i	-2.1	COC(=O)Cc1cc(=O)[nH]c(Nc2nc3ccccc3o2)n1
i	5	CC1(C)CC(=O)N(CC(=O)NCc2ccc(F)cc2)c2ccccc2S1(=O)=O
i	0.56	CSc1ccc(S(=O)(=O)NCC(=O)OCC(=O)N2CC(C)CC(C)C2)cc1[N+](=O)[O-] (configuration not stated)
i	0.11	CCOC(=O)c1ccc2c(c1)N(CC)C(=O)c1ccccc1S2
-8.8*	0.14*	Cc1ccccc1-n1nnnc1SC(C)C(=O)NC1CCCc2ccccc21 (configuration not stated)
i	1.7	O=C(CN1CCN(Cc2ccccc2)CC1)Nc1ccc([N+](=O)[O-])cc1C(=O)Nc1ccccc1F
i	0.63	CCCN1CCN(C(=O)C2CCN(S(=O)(=O)c3c(C)noc3/C=C/c3ccc(C)cc3)CC2)CC1
i	-0.23	O=C1NC(c2ccc(Cl)c([N+](=O)[O-])c2)Nc2ccccc21 (configuration not stated)
i	-0.96	Oc1ccc(C2=NNC(c3ccc(O)cc3)=NN2)cc1
i	0.21	COc1ccc(C)cc1NC(=O)CN1C(=O)c2cccc3cccc1c23
i	-1.1	COc1ccc(SCC(=O)Nc2ccc(N3CCN(C)CC3)c(F)c2)cc1
i	0.3	COc1ccc(C(=O)NC(=O)COC(=O)C2COc3ccccc3O2)cc1 (configuration not stated)
i	-2.5	Cc1cccc(NC(=O)c2sc3nc4c(c(-c5cccs5)c3c2N)CN(C)CC4)c1
i	-0.14	O=c1nc2cccc3c2=c(/c1=C(\O)c1ccccc1)c1ccccc1c3=O
i	2.1	Cn1c(CN2CCCCC2)nc2cc(NS(=O)(=O)c3ccc(F)cc3)ccc21
i	-0.23	C=CCn1c(SC(C)C(=O)NC2(C#N)CCCCC2)nnc1-c1ccc(OC)cc1 (configuration not stated)
-7.7*	-2.1*	Cc1nc2c(c(=O)n1CCC1=CCCCC1)c1nc3ccccc3nc1n2/N=C/c1ccco1

(more compounds)
KCNQ2 block	KCNQ2 block baseline	molecule
i	-0.04	CCCN(CC(=O)Nc1ccccc1C)C(=O)CC(NC(=O)c1ccccc1)c1ccccc1 (configuration not stated)
i	0.13	Cc1ccc(C(=O)/C=C/c2ccc(-c3ccccc3[N+](=O)[O-])o2)cc1
i	0.48	COCCNC(=O)c1ccc2c(=O)n(Cc3ccco3)c(SCC(=O)NC3CCCCC3)nc2c1
i	-0.11	Cc1ccc(S(=O)(=O)N(C)Cc2ccc(C(=O)N/N=C3\CC(=O)CC(C)(C)C3)cc2)cc1
i	-3.9	CCOc1ccc(NCc2nnc(SCc3ccccc3Cl)n2-c2ccccc2)cc1
i	-0.16	CCCCn1c(N)c(N(CC(C)C)C(=O)c2oc3ccc(OC)cc3c2C)c(=O)[nH]c1=O
i	-0.39	COC(=O)/N=C/c1c(NCc2ccccc2)nc2c(C)cccn2c1=O
i	-1.2	Cc1ccc(-n2c(O)c(C=Nc3ccccc3-c3n[nH]c(=S)[nH]c3=O)c3ccccc3c2=O)c(C)c1
i	-0.59	CCc1ccc(OCCSc2nc3ccccc3n2CCC(=O)O)cc1
i	0.52	O=C(CSc1ccc2nnc(-c3ccc(F)cc3)n2n1)NCc1ccco1
i	1.6	CCn1c(SCC(=O)NC2=NCCS2)nnc1C(C)NC(=O)c1ccccc1F (configuration not stated)
i	1	O=C(COc1cccc2cccnc12)N/N=C/c1ccccc1O
i	-1.3	COc1ccc(C2OC(=O)CC2C(=O)N2CCN(c3cc(Cl)ccc3C)CC2)cc1OC (configuration not stated)
i	0.27	COc1ccc(OC)c(NC(=O)Nc2cccnc2)c1
i	-0.91	Cc1ccc(CC2CC(=O)N(CCc3ccccc3)C2=O)cc1 (configuration not stated)
i	-1.3	O=C(NCc1ccc(Cl)cc1)C1CCC(CNc2c(N3CCCCC3)c(=O)c2=O)CC1 (configuration not stated)
i	0.64	Cc1cc(C(=O)N2CCCC(C(=O)c3ccc(Cl)cc3C)C2)no1 (configuration not stated)
i	0.04	Cc1ccc(NC(=O)c2ccc(-c3nn(C)c(=O)c4ccccc34)cc2)c(C)c1
i	-0.18	CC(=O)Cc1nsc(NC(=O)c2cc(-c3cccc(C(F)(F)F)c3)oc2C)n1
i	0.1	CCSC1=N/C(=C\c2ccccc2)C(=O)N1c1ccc(OC)cc1
i	-0.01	C=CCc1ccccc1OCC(O)CN(CC)CC (configuration not stated)
i	-0.65	CCNC(=O)C1CCCN1S(=O)(=O)c1ccc(OC)cc1 (configuration not stated)
-7.5*	-0.16*	c1ccc(-c2ccc3c(c2)c2c4n3CCN=C4CCC2)cc1
i	0.07	O=C1CCC(=O)N1CC(=O)N1CCCc2ccccc21
-6.8*	-1.1*	CSCC(=O)N1CCCC(N2CCN(c3cccc(C(F)(F)F)c3)CC2)C1 (configuration not stated)
i	2.3	O=C(NCc1ccc(F)cc1)C1CCCN(c2nc3ccsc3c(=O)s2)C1 (configuration not stated)
i	-0.09	CCN(CC)C(=O)Oc1ccc2ccccc2c1Br
i	0.02	CSc1nc2cc(F)c(F)cc2n1C
i	1.1	Cc1c(OCC(=O)NCCN2CCOCC2)ccc2c(-c3ccccc3)cc(=O)oc12
i	-2.5	CCC(C)(C)c1ccc(OCC(=O)N(C)C)c(C(C)(C)CC)c1

In another format: 4 of the compounds above
Value order: KCNQ2 block	KCNQ2 block baseline
- Cc1ccc(C(=O)/C=C/c2ccc(-c3ccccc3[N+](=O)[O-])o2)cc1
 : i	0.13
- COCCNC(=O)c1ccc2c(=O)n(Cc3ccco3)c(SCC(=O)NC3CCCCC3)nc2c1
 : i	0.48
- Cc1ccc(S(=O)(=O)N(C)Cc2ccc(C(=O)N/N=C3\CC(=O)CC(C)(C)C3)cc2)cc1
 : i	-0.11
- CCOc1ccc(NCc2nnc(SCc3ccccc3Cl)n2-c2ccccc2)cc1
 : i	-3.9

(further entries)
KCNQ2 block	KCNQ2 block baseline	molecule
i	0.19	N#Cc1c(N)oc(-c2ccc3c(c2)OCO3)c1-c1ccc2c(c1)OCO2
i	-0.06	CC(=O)OC1CSC2c3ccccc3C(=O)N2Cc2sccc21 (configuration not stated)
i	0.7	O=C(Nc1nc(-c2ccccn2)cs1)c1cccc(-n2cnnn2)c1
i	4.2	O=C(c1ccc(Cn2c(=O)[nH]c3ccccc3c2=O)cc1)N1CCN(c2ccccc2)CC1
i	0.01	O=C(NC(=S)N(CCO)Cc1ccccc1)c1ccc(S(=O)(=O)N2CCCC2)cc1
i	-0.67	O=C(Nc1ccc2c(c1)OCO2)C1(S(=O)(=O)c2ccc(Cl)cc2)CC1
i	-0.08	Oc1ccc(O)c(-c2cnns2)c1
i	-0.49	Cc1ccc(C(=O)Nc2cc3c(cc2Cl)OCCCO3)cc1
i	1.7	O=C(OCC(=O)c1ccc(Cl)s1)c1ccccn1
i	0.73	O=C(COC(=O)c1ccc(NS(=O)(=O)c2ccc3c(c2)OCCO3)cc1)NC1CC1
i	0.51	O=C1NNC(c2ccccc2)=N/C1=C\c1ccc(Cl)cc1
i	1.1	CCOC(=O)NC(=O)/C(C#N)=C/c1ccc(N(C)C)cc1
i	-0.9	COc1cc(C)c(S(=O)(=O)NOCc2ccccc2)c(C)c1C
i	-0.31	CCOC(=O)N1CCN(C(=O)/C(=C/c2ccc(F)cc2)NC(=O)c2ccccc2)CC1
i	0.52	COc1ccc(N2CCN(C3=CC(=O)N(c4cccc(Cl)c4)C3=O)CC2)cc1

Rewritten as labelled records: 4 of the compounds above
COc1cccc(NC(C)=[N+](C)CCNS(=O)(=O)c2ccc(Cl)cc2)c1
  KCNQ2 block: i; KCNQ2 block baseline: 0.11

O=C(CCNC(=O)c1ccco1)Nc1ccccc1OC(F)F
  KCNQ2 block: i; KCNQ2 block baseline: -0.31

Cc1cccc(NC(=O)CSc2nc3ccccc3nc2N2CCCC2)c1
  KCNQ2 block: i; KCNQ2 block baseline: -1.1

CCCn1c(C(O)c2ccc(C)cc2)nc2ccccc21 (configuration not stated)
  KCNQ2 block: i; KCNQ2 block baseline: -1.5

(list continues)
KCNQ2 block	KCNQ2 block baseline	molecule
i	-1	Cc1ccc(S(=O)(=O)N2CCCCC2)cc1NC(=O)CSCC(=O)O
i	0.89	O=C(NCC1CCCN(Cc2cccc(F)c2)C1)c1cccc2ccccc12 (configuration not stated)
i	-0.39	Fc1ccc(NCc2nnc(SCc3ccccc3)o2)cc1
i	-2.3	CC(=O)N1c2ccc(S(=O)(=O)NCCC(=O)N(C)C3CCCCC3)cc2CC1C (configuration not stated)
i	-0.4	Cc1nn(-c2ccccc2)c2c1C(c1c(C)[nH]c(C#N)c1C)C(C#N)=C(N)O2 (configuration not stated)
i	2.8	CC(C)CNS(=O)(=O)c1ccc(S(=O)(=O)NC2CCOC(C)(C)C2)cc1 (configuration not stated)
-5.9*	-0.16*	CCC1Oc2ccc(C)cc2N(Cc2cccc(C)c2)C1=O (configuration not stated)
i	0.15	Cc1ccc(C)c(S(=O)(=O)N2CCN(C(=O)C3CC3C)CC2)c1 (configuration not stated)
i	1.2	COc1ccc(S(=O)(=O)NCCSC(C)(C)C)c(Cl)c1Cl

Compound activity: PubChem BioAssay, Johns Hopkins Ion Channel Center
